Polio RdRp inh = inhibitors of poliovirus RNA polymerase binding and polymerization; % elongation, % (compound at 16.7 µg/mL); 150,000 tested, 0.66% active; poliovirus polymerase elongation, fluorescence polarization; stronger effect = lower value; in the data active means % elongation below about 90%; further: some results filed as inactive read as strong as hits
Target sequence (P03300 1749-2209 limits assumed): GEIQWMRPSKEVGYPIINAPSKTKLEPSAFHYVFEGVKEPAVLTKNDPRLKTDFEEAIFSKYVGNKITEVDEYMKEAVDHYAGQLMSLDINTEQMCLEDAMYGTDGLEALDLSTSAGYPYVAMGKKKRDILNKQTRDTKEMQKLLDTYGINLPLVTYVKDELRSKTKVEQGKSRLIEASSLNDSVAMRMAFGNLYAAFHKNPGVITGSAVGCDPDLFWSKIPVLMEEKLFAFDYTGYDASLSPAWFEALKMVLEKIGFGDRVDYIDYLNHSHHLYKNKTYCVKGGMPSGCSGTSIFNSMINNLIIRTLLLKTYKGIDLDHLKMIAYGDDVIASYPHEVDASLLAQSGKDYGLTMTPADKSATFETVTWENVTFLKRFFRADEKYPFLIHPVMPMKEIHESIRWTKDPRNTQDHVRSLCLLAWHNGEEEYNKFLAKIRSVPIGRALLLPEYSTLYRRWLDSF
Polio RdRp inh intensity = recorded beside Polio RdRp inh, whose call it bears; % elongation; measured here: total intensity read-out; formula for this scale not given here;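 total fluorescence in place of polarization; lower means less elongation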
* = called active by the depositor.

SMILES	Polio RdRp inh	Polio RdRp inh intensity
O=C(CSc1nccn1-c1ccc(F)cc1)Nc1ccc(OC(F)(F)F)cc1	110	112
Cc1ccc(F)cc1NC(=O)CSc1nc(-c2cccs2)cc(C(F)(F)F)n1	101	103
CC(=O)Nc1ccccc1-c1nc2ccccc2n(C(C)C(=O)Nc2cc(Cl)ccc2C)c1=O (stereo not given)	111	109
CCOc1ccc(OC(=O)c2c(-c3ccccc3Cl)noc2C)cc1	106	107
Cc1ccc(CNc2nc3nc(C)c(Cl)c(C)n3n2)cc1	117	111
COc1ccc2c(Sc3ccccc3)c(C(=O)NCc3cc(Br)ccc3OC)[nH]c2c1	96	106
Cc1ccc(C)c(N2CCN(C(=O)CN3CCSc4ccc(S(=O)(=O)N(C)C)cc43)CC2)c1	108	113
COc1ccc(OCCSc2nc3ccccc3n2CC(=O)N2CCOCC2)cc1	107	113
CCOc1ccc2c(c1)c(=O)c(S(=O)(=O)c1ccc(CC)cc1)cn2Cc1cccc(Cl)c1	105	107
CCOc1ccc(S(=O)(=O)Nc2cccc(-c3ccc(N4CCCC4)nn3)c2)cc1	96	92
COc1cccc(-c2nc(CS(=O)(=O)CC(=O)N3CCN(c4cc(C)ccc4C)CC3)c(C)o2)c1	100	97
Cc1cccc(C(=O)Nc2ccc(C(=O)OCc3cc(=O)n4nc(CC(C)C)sc4n3)cc2)c1	104	113
Cc1ccccc1-c1nc2cc(NC(=O)c3cccc(OCCC(C)C)c3)ccc2o1	105	112
CC(C)c1cnc2c(c1SCC(=O)c1ccc(Cl)cc1)c(=O)n(C)c(=O)n2C	108	103
COc1cc(OC)c(Nc2nc3ccccc3nc2-n2nc(C)cc2C)cc1Cl	100	103
Cc1ccc(N(CC(C)C)S(=O)(=O)c2nnc(NC(=O)C(C)C)s2)cc1	111	107
Cc1ccc(NC(=O)/C=C/c2ccccc2)c(Br)c1	101	102
COc1ccc(-c2cn3nc(N4CCC(C(=O)NCc5ccc(F)cc5)CC4)sc3n2)cc1	109	106
Clc1ccccc1CN1CCc2nc(N3CCN(c4ncccn4)CC3)ncc2C1	100	105
COc1ccc(CCNC(=O)C(=O)NCC(c2cccs2)S(=O)(=O)c2cccs2)cc1 (stereo not given)	111	114
COc1cc(NC(=O)c2nc3cc(C)c(C)cc3n(C)c2=O)cc(OC)c1OC	113	115
COc1ccc(CN2CCc3c(c(=O)n4ncc(C(=O)N5CCN(c6ccc(F)cc6)CC5)c4n3C)C2)cc1	111	111
CCc1cccc(C)c1Nc1c(-c2ccccc2)nc2sccn12	109	108
CCCCn1c(=NC(=O)C(C)(C)Oc2ccc(Cl)cc2)c(C(=O)OCC)cc2c(=O)n3ccccc3nc21	104	106
CCCc1nn2c(=O)cc(COC(=O)C3CCCCC3)nc2s1	100	102

Gathered by group: the compounds so far with a CF3 group
SMILES	Polio RdRp inh	Polio RdRp inh intensity
O=C(CSc1nccn1-c1ccc(F)cc1)Nc1ccc(OC(F)(F)F)cc1	110	112
Cc1ccc(F)cc1NC(=O)CSc1nc(-c2cccs2)cc(C(F)(F)F)n1	101	103

Additional entries follow.
SMILES	Polio RdRp inh	Polio RdRp inh intensity
Cn1c(SCC(=O)Nc2ccccc2F)nc2c([nH]c3ccccc32)c1=O	107	101
CC(=O)c1cc(-c2ccccc2)n(CCC(=O)NCc2ccc(C)cc2)c1C	106	93
COc1ccc(-c2cn3nc(SCC(=O)Nc4ccccc4F)ccc3n2)cc1	106	115
COc1ccc(NS(=O)(=O)c2cc(-c3onc(C)c3C)ccc2C)c(OC)c1	105	111
CCOC(=O)c1ccc2c(c1)N(Cc1ccc(F)cc1Cl)C(=O)c1ccccc1S2(=O)=O	103	99
CCOc1ccccc1CNC(=O)c1cc(-c2ccc(OC)cc2)nc2ccc(C(C)C)cc12	109	107
Clc1cccc(-n2ncc3c(NCCCn4ccnc4)ncnc32)c1	107	111
COc1cccc(-c2nc(-c3ccc(-c4ccccc4)nc3OC)no2)c1	109	103
COc1cc(OC)c(Nc2cc(C)nc3ncnn23)cc1Cl	101	102
CCc1nn2c(-c3ccccc3OC)ccnc2c1-c1ccc(F)cc1	102	104
CCS(=O)(=O)N1CCc2cc(C(=O)NCc3ccc(OC)cc3)ccc21	108	114
CCOC(=O)CCn1cnc2onc(-c3cc(OC)ccc3Cl)c2c1=O	108	108
COc1ccc(C(=O)Nc2nnc(S(=O)(=O)N(CC(C)C)c3ccc(C)cc3)s2)cc1OC	108	107
CCOC(=O)c1c(NC(=O)c2ccc(S(=O)(=O)N(C)C3CCCCC3)cc2)sc2c1CCN(C(C)C)C2	128	129
CCCOc1ccc(-c2nc3ccccc3c(=O)o2)cc1	103	106
COc1ccc(OC)c(NC(=O)N2c3ccccc3Sc3ccccc32)c1	106	107
COc1ccc(C(C)=O)cc1CSc1nc(NCc2ccc(Cl)cc2)c2ccccc2n1	117	109
CCc1cccc(CC)c1N(COC)C(=O)Cn1c(CC)nc2ccccc21	105	107
Cc1noc(C)c1S(=O)(=O)N1CCC(C(=O)N2CCN(c3ccccc3)CC2)CC1	113	114
CCn1cc(C(=O)N2CCN(c3ccccc3F)CC2)c(=O)c2cc(S(=O)(=O)N(C)C3CCCCC3)ccc21	105	109
O=C(Cn1cc(S(=O)(=O)Cc2ccc(F)cc2)c2ccccc21)NCCc1ccccc1	106	115
CC(C(=O)NCc1ccccc1Cl)n1ccc2cc(S(=O)(=O)N3CCCCC3)ccc21 (stereo not given)	115	118
COCCCNC(=O)CSc1nc2nc(C)c(Cc3ccccc3Cl)c(C)n2n1	103	101
CCOC(=O)c1ccc(NC(=O)CC(C)n2nc(C)cc2C)cc1 (stereo not given)	106	95
COC(=O)CNC(=O)C1CCN(S(=O)(=O)c2cccc3nsnc23)CC1	109	107
SMILES	Polio RdRp inh	Polio RdRp inh intensity
COc1ccc(CCNC(=O)c2cnc3sc(N4CCCC4)nn3c2=O)cc1OC	106	108
O=c1cc2nc(-c3ccccc3F)nc(SCc3ccc(Br)cc3)n2[nH]1	109	112
COc1ccc(OC)c(NC(=O)N2CCN(Cc3nc4ccc(C)cc4o3)CC2)c1	109	113
Cc1ccc(C)c(S(=O)(=O)NCC(c2ccco2)S(=O)(=O)c2ccc(F)cc2)c1 (stereo not given)	110	102
O=C(CSc1nc2c([nH]c3ccccc32)c(=O)n1-c1ccc(F)cc1)NCc1ccccc1	109	114
CCC(=O)Nc1ccccc1C(=O)OCc1cc(=O)n2cc(C)sc2n1	108	113
COc1ccccc1CNC(=O)CN1C(=O)CCCc2ccccc21	107	109
Cc1cc(O)c2c(C)c(CC(=O)NCc3ccccc3Cl)c(=O)oc2c1	108	102
CCOc1ccc(-c2oc3ccccc3c(=O)c2O)cc1OCC	109	115
CN(C)c1ccc(CNC(=O)Cn2c(-c3cccs3)cc3cc(Cl)ccc32)cc1	113	115
CCCc1nc2ccccc2n1CC(O)COc1ccc(C(=O)OC)cc1 (stereo not given)	105	107
O=C(Nc1ccccc1Cl)C1CCN(c2nc3ccccc3nc2C(F)(F)F)CC1	101	102
CCOC(=O)Cn1c(=O)n(CC2CCCO2)c2nc(-c3ccc(CC)cc3)nc(C(N)=O)c21 (stereo not given)	116	111
COc1ccc(CCNC(=O)CSCc2nc(-c3ccc(OC)c(OC)c3)oc2C)cc1OC	102	103
Cc1ccc(C)c(NC(=O)CCNS(=O)(=O)c2ccc3c(c2)CCCC(=O)N3)c1	103	106
CCOC(=O)C1CCCN(c2cc(C)nc3c(-c4ccccc4OC)c(C)nn23)C1 (stereo not given)	105	112
O=C(Cn1cc(SCc2ccccc2Cl)c2ccccc21)N1CCCCCC1	110	113
COC(=O)c1cccc(Nc2c(-c3ccc(O)cc3)nc3nc[nH]n23)c1	107	104
Cc1ccc(C)c(NC(=O)CN2CCSc3ccc(S(=O)(=O)N4CCCC4)cc32)c1	111	115
Cc1c(Cl)cccc1NC(=O)C(=O)NCCc1csc(-c2ccc(C(F)(F)F)cc2)n1	111	112
COc1cc(NC(=O)c2cccc3c2C(=O)N(C2CCCCC2)C3)cc(OC)c1	110	111
CCOc1ccc(NS(=O)(=O)c2ccc3[nH]cc(C(=O)NCc4ccco4)c(=O)c3c2)cc1	110	110
O=C1c2ccccc2-c2onc3c(Br)cc(NC4CCCCC4)c1c23	96	173
COc1ccccc1CCNC(=O)CCCn1c(=O)c2cccn2c2cccnc21	110	115
CCOc1ccc(Nc2c(S(=O)(=O)c3ccc(Cl)cc3)cnc3ccc(OC)cc23)cc1	102	104

Entries shown so far containing a thiophene ring, fused or not:
SMILES	Polio RdRp inh	Polio RdRp inh intensity
Cc1ccc(F)cc1NC(=O)CSc1nc(-c2cccs2)cc(C(F)(F)F)n1	101	103
COc1ccc(CCNC(=O)C(=O)NCC(c2cccs2)S(=O)(=O)c2cccs2)cc1 (stereo not given)	111	114
CCOC(=O)c1c(NC(=O)c2ccc(S(=O)(=O)N(C)C3CCCCC3)cc2)sc2c1CCN(C(C)C)C2	128	129
CN(C)c1ccc(CNC(=O)Cn2c(-c3cccs3)cc3cc(Cl)ccc32)cc1	113	115

Next part:
SMILES	Polio RdRp inh	Polio RdRp inh intensity
Cc1cc(C)c(NC(=O)CSc2n[nH]c(-c3ccccc3Cl)n2)c(C)c1	100	97
CCN(Cc1ccccc1)C(=O)c1cn(-c2cccc(OC)c2)c(=O)c2ccccc12	108	107
Cc1cccc(NC(=O)c2nc(S(C)(=O)=O)ncc2Cl)c1	103	106
CCc1cccc(NC(=O)C(NS(=O)(=O)c2ccc3nc(C)sc3c2)C(C)C)c1 (stereo not given)	107	109
CCOC(=O)c1c(C)oc2ncnc(N3CCN(c4ccc(C)cc4C)CC3)c12	112	113
Cc1cc(OCC(=O)Nc2cc(-c3nc4ccccc4[nH]3)ccc2C)ccc1Cl	102	99
CCOc1ccc2nc(N3CCCC(C(=O)NCCc4ccc(OCC)c(OCC)c4)C3)sc2c1 (stereo not given)	112	114
COCCCNC(=O)C1CCC(CNS(=O)(=O)c2ccc(OC)cc2)CC1 (stereo not given)	106	120
CN(C)c1ccc(CNC(=O)CN2C(=O)c3cccnc3Oc3ccc(Cl)cc32)cc1	108	111
Cc1cc(S(=O)(=O)Nc2ccc3[nH]c(=O)sc3c2)ccc1F	99	110
CCN(CC)CCNC(=O)CN1C(=O)c2cccnc2Oc2ccc(C)cc21	105	105
O=C(NC1(C(F)(F)F)C(=O)Nc2c1c(=O)[nH]c(=O)n2-c1ccccc1)c1ccccc1Cl (stereo not given)	102	108
CCOC(=O)c1sc2ccccc2c1S(=O)(=O)N1CCN(c2cccc(OC)c2)CC1	105	109
CCCSCCCNC(=O)c1ccc(C)c(NC(=O)c2nsc3ccccc23)c1	99	107
COC(=O)c1sc(-c2ccccc2)cc1NC(=O)c1cccc(Cl)c1	103	108
Cc1c(Cl)cccc1NC(=O)NCCOCCn1c(=O)oc2ccccc21	101	106
CCOc1ccccc1NC(=O)c1c(NC(=O)c2ccccc2C)sc2c1CCC(C)C2 (stereo not given)	94	95
Cc1ccc(Nc2ncnc3onc(C)c23)cc1Cl	107	105
CC(C)(Oc1ccc(Cl)cc1)C(=O)Nc1nnc2n1CCS2	100	107
CCC(CC)C(=O)Nc1cccc(-c2cn3cccnc3n2)c1	104	97
COC(=O)c1ccc(NS(=O)(=O)c2c(C)nc3sccn3c2=O)cc1	107	106
CCCn1c2ccccc2c2cnn(CC(=O)N3CCC(C)CC3)c(=O)c21	108	108
CCOC(=O)/C(C#N)=C/c1ccc(-c2ccc(C)cc2)o1	104	101
O=C(Cc1ccccc1)Nc1cccc(-c2cn3cccnc3n2)c1	103	109
COc1ccc(N(CC(=O)Nc2cc(C)ccc2C)S(=O)(=O)c2ccc(OC)c(OC)c2)cc1	100	104

Five records drawn at random from those above:
SMILES	Polio RdRp inh	Polio RdRp inh intensity
Cc1ccc(Nc2ncnc3onc(C)c23)cc1Cl	107	105
CCOc1ccccc1NC(=O)c1c(NC(=O)c2ccccc2C)sc2c1CCC(C)C2 (stereo not given)	94	95
CCOc1ccc2nc(N3CCCC(C(=O)NCCc4ccc(OCC)c(OCC)c4)C3)sc2c1 (stereo not given)	112	114
CCOC(=O)c1c(C)oc2ncnc(N3CCN(c4ccc(C)cc4C)CC3)c12	112	113
CCOC(=O)/C(C#N)=C/c1ccc(-c2ccc(C)cc2)o1	104	101

Compounds above that contain bromine:
SMILES	Polio RdRp inh	Polio RdRp inh intensity
COc1ccc2c(Sc3ccccc3)c(C(=O)NCc3cc(Br)ccc3OC)[nH]c2c1	96	106
Cc1ccc(NC(=O)/C=C/c2ccccc2)c(Br)c1	101	102
O=c1cc2nc(-c3ccccc3F)nc(SCc3ccc(Br)cc3)n2[nH]1	109	112
O=C1c2ccccc2-c2onc3c(Br)cc(NC4CCCCC4)c1c23	96	173

The results go on:
SMILES	Polio RdRp inh	Polio RdRp inh intensity
Cc1cccc(Nc2nc3ccccc3n3c(N)nnc23)c1	108	116
CCCC12CN3CC(CCC)(CN(C1)C3c1ccccn1)C2=O (stereo not given)	115	114
COc1cc2c(cc1OC)C(CC(=O)O)N(C(=O)Nc1cc(OC)c(OC)c(OC)c1)CC2 (stereo not given)	102	102
CCOC(=O)N1CCN(C(=O)c2ccc3c(c2)N(Cc2cccc(Cl)c2)C(=O)c2ccccc2S3=O)CC1 (stereo not given)	104	112
Cc1ccc(Cl)cc1N1CCN(C(=O)c2c(C)oc3ncnc(N4CCCCC4)c23)CC1	108	106
Cc1oc(C)c2c(=O)cc(-c3ccc4c(c3)OCO4)cc(OC(=O)c3cccc(Br)c3)c12	105	102
COc1ccc2cc3c(N)nn(C(=O)c4ccccc4Cl)c3nc2c1	110	112
CCOC(=O)C1CCN(c2nc3c(S(=O)(=O)c4ccc(CC)cc4)nnn3c3ccc(Cl)cc23)CC1	108	104

An excerpt; the hit share may differ from the screen's.
